Screening results deposited in PubChem by several laboratories.
BJeLR viability = MLPCN primary cell-based screen for lethality selective to Ras in HRASV12 cells | inhibition, % (concentration not given with the values) | BJeLR (HRASV12) viability, CellTiter-Glo ATP luminescence, 48 h; reference of the scale not given here | hit rate 0.17% among 300,000 | AID 1554, 2009;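 active means replicate mean above 50%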;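 further: 50 nL library stock added to about 25 µL; numbers are from one replicate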
PrP 5UTR inh = inhibition of PrP 5' UTR reporter expression; inhibition, % (test concentration not listed); cell-based PrP 5' UTR mRNA reporter, plate reader; hit rate 0.35% among 340,000;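 active means every replicate at 50% or more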;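 further: 0 = median of the neutral control wells; tested in H4 reporter cells; numbers are from one replicate; inactives centre near -14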
Autofluor counter = compound fluorescence in toxin protease inhibitor counterscreen. compound autofluorescence counterscreen, microsphere flow cytometry; stronger effect = higher value. fluorescence intensity (concentration not given with the values). hit rate 3.1% among 360,000. AID 624483;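 active means at least 3 SD above the mean of all compounds, about 16000 in these data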;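 further: 100 nL of 1 mM stock went into each well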
Mtb hypoxia rep = PubChem AID 1159583; hit rate 0.1% among 300,000; fluorescence inhibition, % (concentration not given with the values); M. tuberculosis hypoxia-regulated fluorescent reporter, fluorescence;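 active means 35 to 45% if threefold the growth effect, above 45% if 1.5-fold the growth effect; inactive means the rest, general growth blockers included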;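 further: wells of about 50 µL received 100 nL stock; 0% = vehicle wells and 100% = reference inhibitor wells; whole bacteria with a GFP reporter of the hypoxia response; strong numbers were not always called active; many hits fall short of the cut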
RN4220 kill = growth inhibition of S. aureus RN4220, primary screen, OD600. 16 h. AID 1259311, 2017. inhibition, % (test concentration not listed). hit rate 0.33% among 330,000;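 active means z-score of -3 or lower and OD600 up to 0.18 on both plates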;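 further: plate controls were untreated cells for no effect and reference antibiotic for full effect; stock transfer was 100 nL into about 80 µL; one replicate is shown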
ugtP null kill = growth inhibition of ugtP-null S. aureus, primary screen, RN4220 ugtP deletion, OD600; 16 h; some inactives read as strong as hits; growth inhibition, % (concentration not given with the values); hit rate 0.54% among 330,000; AID 1259309, 2017;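 active means z-score under -3 and OD600 up to 0.15 on both plates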;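 further: plate controls were untreated wells for no effect and antibiotic for full effect; wells of about 80 µL received 100 nL stock; the first replicate is given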
Mtb hypoxia rep growth = also measured in Mtb hypoxia rep; calls as there; growth inhibition, %; measured here: M. tuberculosis growth (absorbance);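 0% = vehicle and 100% = reference antibiotic; read after six days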
* = called active by the depositor; x = not tested or not shown. Compounds as they come, and some 4% of all compounds hit somewhere here.

Fields: PrP 5UTR inh, BJeLR viability, Mtb hypoxia rep, RN4220 kill, Autofluor counter, ugtP null kill, Mtb hypoxia rep growth
- CC(=O)Nc1n[nH]c(S(=O)(=O)Cc2ccc(Cl)cc2Cl)n1
→ -6.3, 4.5, 11.6, -2.0, 3062, -6.5, 2.8
- CCc1nnc(NC(=O)CN2CCN(Cc3cccc(Cl)c3)CC2)s1
→ -18.5, -3.1, 6.1, 8.1, 3906, 18.0, 3.2
- Cc1cc(C)cc(NC(=O)NC(C)C2CCCO2)c1 (stereo not given)
→ -3.0, -2.6, -8.8, 2.4, 1929, 2.8, -9.2
- O=C(O)c1ccc(OS(=O)(=O)c2ccc(Cl)s2)c(Cl)c1
→ -9.6, x, 0.7, 10.9, 5704, -8.6, 3.3
- O=S(=O)(Nc1ccc(-c2nc3ccccc3o2)cc1)c1ccccc1
→ -15.9, -2.9, 4.0, 15.5, 23226*, -4.7, 4.3
- S=C(NCc1ccccc1)NCc1cccc(CNC(=S)NCc2ccccc2)c1
→ 2.9, -7.8, -7.2, -3.6, 2298, -20.5, -6.5
- CC1(C)C2CCC1(CS(=O)(=O)NCc1ccc(C(F)(F)F)cc1)C(=O)C2 (stereo not given)
→ 4.8, 7.4, 3.5, 4.8, 3991, 11.0, 9.9
- Cc1ccc(S(=O)(=O)CC(O)COc2ccc(C#N)cc2)cc1 (stereo not given)
→ -15.2, -5.3, 6.6, 2.1, 4355, 3.6, 1.5
- CN(C(=O)COC(=O)c1cccnc1Nc1cccc(C(F)(F)F)c1)C1CCS(=O)(=O)C1 (stereo not given)
→ -7.3, 7.5, 4.6, 3.6, 2550, 2.7, 0.6
- CCc1nc(C)c(-c2ccccc2)c(=O)[nH]1
→ -11.1, -0.1, 0.6, 3.0, 7544, 7.2, 4.3
- COc1ccc(C(=O)NCCc2ccccn2)cc1S(=O)(=O)Nc1ccc(Br)cc1
→ -4.0, x, 2.3, 0.1, 3731, 0.3, 0.1
- CNS(=O)(=O)c1cccc(C(=O)OCC(=O)Nc2sc3c(c2C#N)CCCCC3)c1
→ -23.9, 7.2, 13.8, -0.9, 2583, 0.6, -1.9
- Cc1cc(Oc2ccc(C#N)cc2)nc(NCc2ccccc2)n1
→ -9.5, 16.3, 14.9, 5.7, 4383, -7.5, 8.4
- CC(=O)Nc1ccc(S(=O)(=O)NC2CC(=O)N(c3ccc(C)cc3)C2)cc1 (stereo not given)
→ -10.9, 5.2, 2.7, 1.6, x, 1.5, 9.3
- CCCCNC(=O)C1Cc2cc(S(=O)(=O)N3CCCC3)ccc2N1C(C)=O (stereo not given)
→ -7.0, 27.8, 17.4, 0.1, 6475, 0.5, 6.2
- O=C(CCC(=O)N1CCOc2ccccc21)NC1CCN(Cc2ccccc2)CC1
→ 4.9, 2.9, 6.8, -5.4, 4677, 10.4, 3.3
- NC(=NO)c1ccc(N2CCN(c3ncccc3C(F)(F)F)CC2)nc1
→ x, x, 14.1, 4.5, x, 5.5, 2.5
- CN(C)C1=NCC(Cc2ccccc2)N1CCC1CCCC1 (stereo not given)
→ x, x, 20.4, 4.4, x, 3.2, 15.6
- Cc1cccc(N2CCN(c3nnnn3-c3ccccc3)CC2C)c1 (stereo not given)
→ -16.3, 9.4, x, -1.2, 3200, 10.2, x
- CC(=NNS(=O)(=O)c1ccccc1)c1ccc2c(c1)OCCO2
→ x, x, 5.4, -4.6, x, 29.1, -7.2

Structures from the list above containing a Cl atom (three):
Fields: PrP 5UTR inh, BJeLR viability, Mtb hypoxia rep, RN4220 kill, Autofluor counter, ugtP null kill, Mtb hypoxia rep growth
- CC(=O)Nc1n[nH]c(S(=O)(=O)Cc2ccc(Cl)cc2Cl)n1
→ -6.3, 4.5, 11.6, -2.0, 3062, -6.5, 2.8
- CCc1nnc(NC(=O)CN2CCN(Cc3cccc(Cl)c3)CC2)s1
→ -18.5, -3.1, 6.1, 8.1, 3906, 18.0, 3.2
- O=C(O)c1ccc(OS(=O)(=O)c2ccc(Cl)s2)c(Cl)c1
→ -9.6, x, 0.7, 10.9, 5704, -8.6, 3.3

(further entries)
Fields: PrP 5UTR inh, BJeLR viability, Mtb hypoxia rep, RN4220 kill, Autofluor counter, ugtP null kill, Mtb hypoxia rep growth
- CC(C)C(=O)Nc1sc2c(c1C(N)=O)CCN(Cc1ccccc1)C2
→ -7.8, 27.2, 4.5, -2.6, 4565, -2.0, 16.0
- CC1CCN(C(=O)COc2ccc(S(=O)(=O)N3CCCC3)cc2)CC1
→ -8.4, -3.4, 0.2, 2.9, 3939, 6.2, 1.1
- COc1ccc(NC(=O)NNC(=O)c2cc3occc3n2C)c(OC)c1
→ -7.4, 4.8, -6.5, 8.1, 5847, 15.6, 5.2
- O=C(NNC1CC(=O)N(c2ccc(Cl)cc2)C1=O)c1ccccn1 (stereo not given)
→ -13.1, 1.6, 2.5, 3.9, 2650, -0.7, 7.4
- O=C(COc1ccc(Cl)cc1)NCc1nnc(SCC(=O)N2CCCc3ccccc32)o1
→ 2.6, 6.2, x, -1.7, 3894, 11.3, x
- CC(C)CC(C(=O)N1CCc2ccccc2C1)N1C(=O)c2ccccc2C1=O (stereo not given)
→ -21.6, -1.4, x, 1.3, 3611, 0.3, x
- CCc1cccc(C)c1NC(=O)C1CCCN1C(=O)NCc1ccccc1 (stereo not given)
→ -9.4, 1.3, 4.6, -1.0, 5258, 7.0, -0.9
- CN1C(=O)[C@H]2[C@@H](C3CC3)N3C(=O)CN(CCO)C(=O)[C@@]3(Cc3ccccc3)[C@H]2C1=O
→ -11.9, 0.0, x, x, 2856, x, x
- Cc1oc(-c2ccccc2F)nc1CS(=O)CC(=O)NC1CC1 (stereo not given)
→ -25.9, 4.8, 10.7, 2.2, 5487, 3.8, 3.8
- O=C(O)c1ccc(C=NNC(=O)c2ccc(CN3c4cccc5cccc(c45)S3(=O)=O)cc2)cc1
→ x, x, -1.3, 2.6, x, 7.6, -5.9
- COc1ccc(Br)cc1C(=O)CCC(=O)OCC(=O)Nc1cc(C(N)=O)cc(C(N)=O)c1
→ -9.9, x, 5.3, 2.0, 5787, 3.0, 3.4
- CS(=O)(=O)c1ccc(N2CCOCC2)c(S(C)(=O)=O)c1
→ -13.3, -11.5, 1.2, 3.7, 20225*, 0.9, 2.8
- Cc1nn(-c2ccccc2)c2nc(C(F)(F)F)[nH]c(=O)c12
→ -25.5, 7.9, 4.7, 8.6, 2282, 7.5, 4.1
- O=C(CC1(C(=O)O)CCCC1)N1CCOCC1
→ -17.3, 6.5, 12.5, 6.4, 9296, -8.2, 14.4
- Cc1ccc(NC(=O)COc2ccc3c(c2)OCO3)c(Cl)c1
→ -69.1, x, 5.6, 6.1, 2760, 8.5, 0.1
- O=C(Cc1ccc(O)cc1)NN=Cc1cccnc1
→ x, x, 8.0, -0.3, x, 6.3, 5.4
- CC(C)(O)C#Cc1ccc(CN2CCN(Cc3ccsc3)C(CCO)C2)cc1 (stereo not given)
→ -11.5, -6.3, 1.9, 5.0, 2312, 1.7, -2.3
- CCOC(=O)c1c(N=Cc2ccccc2O)sc2c1CCC2
→ x, x, -2.7, 1.7, x, -2.4, 5.6
- CC(C)(CNC(=O)c1ccc(-c2ccccc2Cl)o1)N1CCOCC1
→ -69.6, -12.1, 3.3, 2.2, 6377, 2.8, 0.0
- O=C(c1ccc2c3c(cccc13)CC2)C1CCCN(C(=O)c2cc[n+]([O-])cc2)C1 (stereo not given)
→ -23.4, 3.8, 7.1, 3.5, 2589, -2.0, 1.8
- CC1CCN(C(=O)c2[nH]cnc2C(=O)NC(C)C(=O)OCc2ccccc2)CC1 (stereo not given)
→ x, x, -9.3, 3.9, x, 0.5, 3.1
- COc1ccc(C(=O)Oc2ccc(F)cc2C(=O)/C=C/c2ccc(OC)c(OC)c2)cc1
→ -9.7, -4.2, 14.8, 6.9, 2534, 3.5, 10.2
- CCc1ccccc1NC(=O)N1C[C@H]2C[C@@H](C1)c1cccc(=O)n1C2
→ -22.4, -8.9, x, 1.0, 4245, 9.8, x
- Cc1ccc(-c2nnn(CCC(=O)NC3CCCC3)n2)cc1
→ -21.7, 12.3, 4.0, 2.8, 11990, 4.5, 7.4
- O=C(Nc1ccccc1C(=O)N/N=C/c1ccc(O)cc1)c1ccccc1
→ -28.7, 0.5, x, x, 5339, x, x
- O=C(COC(=O)c1ccccc1F)c1ccc(-n2nncc2-c2ccco2)cc1
→ -18.6, -0.7, 11.8, -5.5, 3258, 1.4, 7.1
- Cc1sc(NC(=O)CCC(=O)O)c(C#N)c1C
→ -27.6, -1.8, 6.6, 0.9, 4324, 3.9, -0.2
- Cc1cc(NC(=O)Cn2nc3c(cc2=O)CCCC3)ccc1Br
→ 0.4, 0.2, 13.6, 6.5, 3780, -0.4, 4.3
- COc1ccc(C=NNC(=O)c2snnc2C)c(OC)c1OC
→ x, x, 10.7, 5.5, x, 5.1, 18.2
- CCOC(=O)c1c(CN2CCN(C)CC2)n(-c2ccccc2)c2cc(Br)c(O)cc12
→ -42.8, -7.2, 2.0, -5.5, 4329, -6.2, 6.2
- O=c1oc2c3c(nn2c2ccccc12)CCCC3
→ -18.1, 4.8, 0.6, 0.9, 11128, -0.6, -0.1
- COc1ccc(N2CCN(C(=O)CCc3nnc4ccc(N5CCCC5)nn34)CC2)cc1
→ -14.8, -2.9, -10.0, 1.6, 5472, 8.9, 5.2
- COc1cccc(-n2nnnc2SCC(=O)N2CCCc3ccccc32)c1
→ -26.6, -5.5, 11.9, 5.7, 10618, 6.5, -2.0
- Cc1cc(C)cc(N2C(=O)CC(N(C(=O)c3ccco3)c3cc(C)cc(C)c3)C2=O)c1 (stereo not given)
→ -27.4, 5.5, 5.2, -1.7, 6195, 13.6, 10.4
- CCCCn1cnc2c(SCc3ccccc3Cl)nc(N)nc21
→ -11.5, x, 10.9, 4.4, 3259, -1.6, 9.8
- CC(C)OCC(O)CSc1ccccn1 (stereo not given)
→ -17.6, -0.8, 8.7, 4.0, 8096, 10.4, 9.9
- COc1ccc(Oc2ccc(S(=O)(=O)N3CCCCC3)cc2S(=O)(=O)N2CCCCC2)cc1
→ -10.5, 3.0, 3.3, 2.2, 4776, 18.8, 5.0
- O=C(NC1CCC(O)CC1)c1ccc(Br)o1 (stereo not given)
→ 1.2, x, 9.1, 2.3, 3513, 3.2, 8.4
- Nc1nc(NCc2ccccc2)n(-c2ccccc2)n1
→ -9.0, 4.7, 3.3, 2.3, 3823, 6.3, 6.1
- COC(=O)c1cc2occc2n1Cc1nc(-c2cccc(Cl)c2)oc1C
→ -8.3, 2.5, 2.7, -5.4, 5637, 4.3, 9.9
- Cc1ccc(Cn2cc(C=O)c(-c3ccc(C)cc3)n2)cc1
→ -11.7, 5.9, -0.5, -1.1, 2061, 6.3, 9.6
- O=C(/C=C/c1ccc([N+](=O)[O-])cc1)Nc1cccc(S(=O)(=O)NC2=NCCCCC2)c1
→ 2.3, x, 6.0, 7.7, 3062, 15.3, 5.2
- COC(=O)c1cc(C)nc2c1C(=O)C(=O)C=C2N1CCOCC1
→ 9.4, 9.9, -3.1, -0.4, 3460, -0.9, -6.9
- CCNC(=O)COC(=O)C1CCC(=O)N(c2ccc(OC)cc2)C1c1ccc(OC)cc1 (stereo not given)
→ -18.6, 5.6, 2.1, 5.4, 21386*, 5.2, 7.6
- CNC(=O)c1nn(C)c(=O)[nH]c1=O
→ -18.9, x, 8.6, 3.5, 2941, 3.1, 8.4
- COC(=O)c1ccc(Cl)c(NC(=O)NC23CC4CC(CC(C4)C2)C3)c1
→ -3.9, -3.5, -2.6, -9.3, 4210, -31.5, 17.4
